Compound activity from PubChem.
Biofilm kill mix: mixtures killing C. albicans biofilm | C. albicans biofilm persisters + clotrimazole, fluorescence viability; primary screen in compound mixtures of four per well | hit rate 0.02% among 120,000 | inhibition, % at 7.6 µM | AID 1242;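 active = inhibition above 30.3% in the primary screen of four-compound pools, then above 30% when the compound was retested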;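 also: compounds exposed to preformed 24 h biofilms for 48 h; the number belongs to the whole pool; some results filed as inactive read as strong as hits; inactives centre near 12; 0% = biofilm with clotrimazole alone and 100% = kill control; retested singly at about 60 µM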
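Test system: C. albicans CAF4-2 wild-type biofilms; buffer or medium: RPMI/MOPS medium, pH 7.0; schedule: 24 h biofilm formation, then 48 h compound exposure, 37 °C; detection: Alamar Blue fluorescence; measure: percent inhibition of biofilm viability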
Starred values were filed as active, the others as inactive. Only part of the results is shown; the hit share may differ from the screen's.

SMILES | Biofilm kill mix
CC(=O)N1CCCC(C(=O)c2ccc3c4c(cccc24)CC3)C1 (stereo unspecified) | -0.6
COc1ccccc1/C=C/C(=O)c1ccc(NC(C)=O)cc1 | 11.5
NC(=O)CC(NC(=O)c1ccccc1)c1ccc(NCCc2cccc(F)c2)c([N+](=O)[O-])c1 (stereo unspecified) | 16.2
CC(C)Cn1c(CN2CCN(C(=O)c3ccco3)CC2)nc2c1c(=O)n(C)c(=O)n2C | 9.8
Cn1cccc1/C=N/N1CCN(c2ccccn2)CC1 | 12.6
COc1ccc2c(c1)[nH]c1c(Cl)ncnc12 | 17.6
CCC1CCCCN1C(=S)Nc1cccc(S(=O)(=O)N(C)C)c1 (stereo unspecified) | 0.7
FC(F)(F)COc1nc(N/N=C/c2cccnc2)nc(N2CCCCC2c2ccccn2)n1 (stereo unspecified) | 11.3
FC(F)(F)c1cccc(NC(=S)NCc2ccccn2)c1 | 3.8
CCC1=C2CC[C@H]3C(=O)N(CC(=O)OC)C(=O)[C@H]3[C@H]2[C@@]2(C)C(=NCC(=O)OC)OC(=O)N2C1=O | 9.4
O=C(O)CNC(=S)N(Cc1ccccc1Cl)C1CCCCC1 | 17.1
O=C(/C=C/c1ccco1)Nc1ccc2nn(-c3ccccc3)nc2c1 | 3.4
CN(C)S(=O)(=O)c1cc(NC(=O)CN2CCCc3ccccc32)ccc1Cl | 11.2
CCOc1ccc2nc(NCCCNS(=O)(=O)c3ccc(F)cc3)c(C#N)cc2c1 | 14.7
CCN(C(=O)c1cc2c(=O)[nH]c3ccc(C)cc3c2s1)c1ccc(F)cc1 | 23.3
O=C(NC(=O)c1ccccc1O)c1ccc(C(F)(F)F)cc1 | 23.1
O=C(O)C1=C[C@@H](c2ccc3c(c2)OCO3)C[C@@H](OCc2ccc(CO)cc2)O1 | 14.7
CC(C)(CO)NC(=O)CC1C(=O)NCCN1CC(c1ccccc1)c1ccccc1 (stereo unspecified) | 27.7
Cc1ccc(/C=N/NC(=O)Cn2ccc(C(F)(F)F)n2)o1 | 15.2
Cc1cc(O)cc2c1C(c1ccc(F)cc1)CC1(CC(C)(C)NC(=S)N1)O2 (stereo unspecified) | 22.7

Reprinted from the part before: seven compounds, then new ones.
SMILES | Biofilm kill mix
CCOc1ccc2nc(NCCCNS(=O)(=O)c3ccc(F)cc3)c(C#N)cc2c1 | 14.7
CCN(C(=O)c1cc2c(=O)[nH]c3ccc(C)cc3c2s1)c1ccc(F)cc1 | 23.3
O=C(NC(=O)c1ccccc1O)c1ccc(C(F)(F)F)cc1 | 23.1
O=C(O)C1=C[C@@H](c2ccc3c(c2)OCO3)C[C@@H](OCc2ccc(CO)cc2)O1 | 14.7
CC(C)(CO)NC(=O)CC1C(=O)NCCN1CC(c1ccccc1)c1ccccc1 (stereo unspecified) | 27.7
Cc1ccc(/C=N/NC(=O)Cn2ccc(C(F)(F)F)n2)o1 | 15.2
Cc1cc(O)cc2c1C(c1ccc(F)cc1)CC1(CC(C)(C)NC(=S)N1)O2 (stereo unspecified) | 22.7
CN1C(=O)/C(=C/c2ccc(C(=O)NC3CCCC3)cc2)Oc2ccccc21 | -2.2
Cc1nn(CC(=O)Nc2ccc(C#N)cc2)c(C)c1[N+](=O)[O-] | 6.5
Brc1ccc2nc(-c3c[nH]c4ccccc34)cn2c1 | 14.7
Nc1ccc2nc3c(=O)n(C4CCCCC4)c(=O)[nH]c3nc2c1 | 13.5
O=C(CNC(=S)N(Cc1ccccc1)Cc1cccnc1)NCc1ccccc1 | 6.3
COc1cccc(C(=O)COC(=O)c2ccc(NC(C)=O)cc2)c1 | -5.5
O=C(NNC(=O)C1[C@H]2CCCC[C@@H]12)NC1CCCCC1 (stereo partly specified) | 21.2
Cc1ccc(S(=O)(=O)c2ccccc2)cc1S(=O)(=O)N1CCOCC1 | 14.5
COc1ccc(CCc2nnc(CCC(=O)NCCc3ncccc3C)o2)cc1 | 1.8
O=C(Oc1cccccc1=O)c1ccccc1 | 14.5
CCCN1Cc2cccc(C(=O)NCc3ccc(C)cc3)c2C1=O | -5.2
O=C(CSc1ccc(Cl)cc1)NCc1ccncc1 | 11.8
CCCS(=O)(=O)N1CCC(CCOc2ccccc2)(C(=O)OCC)CC1 | 10.6
O=C(Cc1ccccc1)Nc1nc(-c2cccc([N+](=O)[O-])c2)cs1 | 13.9
O=C(O)CC/C(=N\NC(=O)CNC(=O)c1ccc(F)cc1)c1ccccc1 | 23.5
Cc1ccc(C(=O)COC(=O)CN2C(=O)C3C4CCC(C4)C3C2=O)cc1[N+](=O)[O-] (stereo unspecified) | 17.4
CCOc1ccc(Nc2nc(N)nc(CSC(=S)N3CCN(c4ccccc4)CC3)n2)cc1 | 9.7
COC(=O)CNC(=S)NC(=O)c1ccc(C(C)(C)C)cc1 | 14.0
O=[N+]([O-])c1cccc(/C=N\N2CCN(c3ccc(Cl)cc3)CC2)c1 | -6.0
CC(C)C(NC(=O)OCc1ccccc1)C(=O)NCc1ccc(C(=O)O)cc1 (stereo unspecified) | 10.3
CCN=C1S/C(=C\c2ccc(OC)c(OCC)c2)C(=O)N1CC | 14.5
CCC(=O)Nc1cccc(NC(=O)c2ccccc2Cl)c1 | 13.1
Cc1cccc(NC2=C(NC(=O)c3ccccc3)C(=O)c3ccccc3C2=O)c1 | 16.2
CCOC(=O)c1cccc(NC(=O)/C=C/c2ccc3c(c2)OCO3)c1 | 6.5
CC(C)OC(=O)CCC(=O)Nc1ccc(F)cc1 | 32.1
CC(NC(=O)CCl)c1ccccc1Br (stereo unspecified) | 14.8
COCCNC(=O)NC(=O)CN1CCCc2ccccc21 | 12.1
CC1(OC(=O)CCc2ccccc2)C(=O)C=C2C=C(c3ccsc3)OC=C2C1=O (stereo unspecified) | 8.7
CN1CCCN(c2ccc([N+](=O)[O-])cc2)CC1 | 5.1
O=C(c1ccc(F)cc1F)N1CCN(c2n[nH]c(=O)[nH]c2=O)CC1 | 8.3
COc1cc(Br)c(CCNC(=O)c2ccco2)cc1OC | 11.2
Cc1cc(C)c2oc(C(=O)N(Cc3ccccc3)C3CCS(=O)(=O)C3)cc(=O)c2c1 (stereo unspecified) | 17.7
COc1ccc(NC(=O)CCNS(=O)(=O)c2ccc3c(c2)c(=O)n(C)c(=O)n3C)cc1OC | -1.8
C/C(=N\O)c1ccc(Cl)c(Cl)c1 | 18.2
C#Cc1ccc([C@@H]2C=C(C(=O)NCc3nc4ccccc4[nH]3)O[C@H](OCC)[C@H]2CCCO)cc1 | 18.9
Cc1c(C(=O)NCc2ccc(S(N)(=O)=O)cc2)oc2ccc(Cl)cc12 | 11.4
COc1ccc(CCNC(=O)C2Cc3ccccc3C(=O)O2)cc1 (stereo unspecified) | 10.1
COc1ccc2c(c1O)Cc1ccccc1C2=O | 19.9
CCN(CC)S(=O)(=O)c1ccc(N2CCN(c3cccc(OC)c3)CC2)c([N+](=O)[O-])c1 | 11.8
COc1cc(C2Nc3ccccc3C(=O)N2c2ccccc2)c(Br)cc1OCC(=O)O (stereo unspecified) | 7.2
Cc1ccc(-n2c(SCC(=O)Nc3ccc4c5c(cccc35)CC4)nc(O)c(C)c2=O)cc1 | 14.5
Cc1ccc(NC(=O)CN2C(=O)C3C4C=CC(C4)C3C2=O)cc1S(=O)(=O)N(C)C (stereo unspecified) | 15.6
O=C(Nc1nnc(C2CC2)o1)c1ccc(S(=O)(=O)N2CCc3ccccc3C2)cc1 | 7.8
NC(=S)Nc1ncc(CCN2CCOCC2)c(-c2ccc(F)cc2)n1 | 12.1
Cc1ccc(N=Cc2c(C)[nH]n(-c3ccccc3)c2=O)nc1 | 11.7
CC(=O)Nc1ccc(OC(=O)c2c(-c3ccccc3Cl)noc2C)cc1 | 20.8
N=C(N)N1CCc2ccccc2C1 | 12.7
COCCNc1nnc(SCC(=O)c2c[nH]c3ccccc23)s1 | 12.2
CC(C)(C)C1CCc2c(sc(NC(=O)c3cccs3)c2C(N)=O)C1 (stereo unspecified) | 7.3
O=C(NNc1cccc(Cl)c1)c1cccnc1Oc1ccccc1 | 19.7
CCN(CC)c1ccc(C=C2C(=O)OC(c3ccccc3)OC2=O)cc1 (stereo unspecified) | 14.9
O=C(O)C1CCCCC1C(=O)Nc1ccc(-c2ccccc2)cc1 (stereo unspecified) | 6.8
Cc1cc(C(=O)N2CCc3c([nH]c4ccccc34)C2c2cccc(Cl)c2)nn1C (stereo unspecified) | -38.0
O=c1n(Cc2ccc(F)cc2)nc2n1-c1ccccc1SC2 | 13.0
CCOC(=O)/C(C#N)=C/c1ccc(N2CCN(C)CC2)cc1 | 17.2
CC12COC3(C(=O)NCCc4ccccc4)CC1CCC32C (stereo unspecified) | 8.1
CC(=O)N/C(=N\OCc1ccc(Br)cc1)c1nonc1NC(C)=O | 2.8
C/C(=N\NC(=O)c1ccc(Br)cc1)c1cccc(NC(=O)c2cccnc2)c1 | 12.1
O=C(COC(=O)Cn1cnc2ccccc2c1=O)Nc1ccc2c(c1)OCO2 | 20.1
O=C(N/N=C/c1cc(Cl)ccc1O)c1ccncc1 | 3.0

(listing goes on)
SMILES | Biofilm kill mix
COc1ccc2nc(/C=N/NC(=O)[C@@H]3CCCN3C(=O)OC(C)(C)C)ccc2c1 | 20.0
COc1cc(NC(=O)c2ccccc2NS(=O)(=O)c2ccc(Cl)s2)cc(OC)c1 | 17.1
C=CCn1c(CNC(=O)c2cccs2)nnc1SCc1ccc(Cl)cc1Cl | 11.3
COc1ccccc1CN1C[C@@H]2C[C@@H](c3[nH]c4c(C)cccc4c3C)N3CCC[C@@]23C1=O | -3.8
COc1ccc(OC)c(-c2csc(CCn3nc(C)cc3C)n2)c1 | 10.9
CS(=O)(=O)c1ccc2nc(NC(=O)c3cc(-c4ccccc4)nn3-c3ccccc3)sc2c1 | 10.8
CC(=O)N1c2ccccc2Nc2ccccc21 | 19.2
Cc1cc(N2CCCCC2)nc(N)n1 | 21.9
CC1(C)CC(=S)Nc2ccccc2S1 | 15.3
Cc1cc(C)n(CCN(C)C(=O)CCc2nnc(CCC3CCCCC3)o2)n1 | 9.6
Cc1ccc2[nH]c(=O)c(CN(Cc3ccccc3)C(=S)NCCCN(C)C)cc2c1 | 10.1
O=C(c1ccc(Cl)cc1)N1CCn2c1nc1ccccc12 | 20.9
Nc1ccc(C(=O)OC2CCOC2=O)cc1[N+](=O)[O-] (stereo unspecified) | 5.8
Nc1n[nH]c(-c2cccc([N+](=O)[O-])c2)n1 | 21.3
COc1cccc(CN(C)CC(=O)Nc2sc3c(c2C#N)CCC3)c1OC | 12.3
COC(=O)C1C(=O)C(C(=O)/C=C/c2ccccc2)C(=O)CC1(C)C (stereo unspecified) | 12.4
O=C(Nc1ccccc1C(=O)NCc1ccco1)Nc1cccc2ccccc12 | 12.1
CCn1cnc2cc(NC(=O)c3ccco3)ccc21 | 4.3
O=C(Nc1ccc(-c2ccc3nncn3n2)cc1)C1CCCC1 | -10.8
Cc1ccccc1C(=O)N1CCN(c2ccccn2)CC1 | 13.3

A different layout for some results above:
| compound | Biofilm kill mix |
| --- | --- |
| CS(=O)(=O)c1ccc2nc(NC(=O)c3cc(-c4ccccc4)nn3-c3ccccc3)sc2c1 | 10.8 |
| C=CCn1c(CNC(=O)c2cccs2)nnc1SCc1ccc(Cl)cc1Cl | 11.3 |
| Nc1ccc(C(=O)OC2CCOC2=O)cc1[N+](=O)[O-] (stereo unspecified) | 5.8 |

Carrying on.
SMILES | Biofilm kill mix
Cc1cccc2[nH]c(CN(C)Cc3nc(CC4CC4)no3)nc12 | 19.8
CC(NC(=O)COC(=O)/C=C/c1ccc([N+](=O)[O-])cc1)c1ccccc1 (stereo unspecified) | 16.7
O=Cc1ccc(Oc2cc(-c3ccccc3)nc(-c3ccccc3)n2)cc1 | 9.4
C=CCn1c(=S)[nH]c2scc(-c3cccs3)c2c1=O | 16.1
CCOC(=O)N/N=C/c1c(C)nn(-c2ccccc2Cl)c1Cl | 13.8
CC(C)C(=O)NC(=S)N(Cc1ccccc1)Cc1ccccc1 | 11.2
O=C(NCCO)C(O)C(O)C(=O)NCCO (stereo unspecified) | 3.9
O=C(NCCCn1ccnc1)c1cc2nc(-c3ccc(Br)cc3)cc(C(F)(F)F)n2n1 | 12.5
C=CCNC(=O)NC(=O)COC(=O)CC(NC(N)=O)c1ccc(Cl)cc1 (stereo unspecified) | 13.8
O=C(NCCN1CCN(Cc2ccccc2)CC1)Nc1cc(Cl)cc(Cl)c1 | 22.8
Cc1cc(OCCCCCN2CCCC2)ccc1Cl | 11.0
COC(=O)c1c(C)oc(C)c1S(=O)(=O)NCc1cccs1 | 14.5
O=C(COC(=O)CCC(=O)c1ccc(F)cc1)NCc1ccco1 | 1.1
COc1ccc(CC(=O)Nc2cccc(SC)c2)cc1OC | 23.3
CN(C)C(=S)Nc1cccc(-c2n[nH]c(=S)o2)c1 | 12.8
CC(C)(C)NC(=O)C(c1cccs1)N(C(=O)C(=O)NC1CCCC1)c1ccccc1F (stereo unspecified) | 24.6
COc1ccccc1N1CCN(Cc2nc(-c3ccc(F)cc3)oc2C)CC1 | 9.3
COC(=O)CC1C(=O)NCCN1C(=O)CSc1nc2ccccc2o1 (stereo unspecified) | -0.6
COc1ccc(-c2ccc(SCc3ccccn3)nn2)cc1OC | 2.5
C=CCSc1nc(O)c(C2OC(=O)c3c2ccc(OC)c3OC)c(=O)n1-c1ccccc1 (stereo unspecified) | 27.5
CCc1ccccc1N1C(=O)[C@@H]2Cc3ccccc3CN2C1=O | 16.3
CC(C)(C)OC(=O)N1CCC(CNC(=O)c2ccc(F)cc2F)CC1 | 25.3
